TNAP act hiacc = TNAP (human) activation, high acceptor; AID 1136; purified TNAP, CDP-star luminescence, 1 M DEA, 30 min; stronger effect = higher value; 0 = EDTA background, 1 = DMSO-only activity; activation factor at 20 µM; 200,000 tested, under 10 active;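 active means activation factor at least 2 at 20 µM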
Target sequence (P05186 whole entry, looked up): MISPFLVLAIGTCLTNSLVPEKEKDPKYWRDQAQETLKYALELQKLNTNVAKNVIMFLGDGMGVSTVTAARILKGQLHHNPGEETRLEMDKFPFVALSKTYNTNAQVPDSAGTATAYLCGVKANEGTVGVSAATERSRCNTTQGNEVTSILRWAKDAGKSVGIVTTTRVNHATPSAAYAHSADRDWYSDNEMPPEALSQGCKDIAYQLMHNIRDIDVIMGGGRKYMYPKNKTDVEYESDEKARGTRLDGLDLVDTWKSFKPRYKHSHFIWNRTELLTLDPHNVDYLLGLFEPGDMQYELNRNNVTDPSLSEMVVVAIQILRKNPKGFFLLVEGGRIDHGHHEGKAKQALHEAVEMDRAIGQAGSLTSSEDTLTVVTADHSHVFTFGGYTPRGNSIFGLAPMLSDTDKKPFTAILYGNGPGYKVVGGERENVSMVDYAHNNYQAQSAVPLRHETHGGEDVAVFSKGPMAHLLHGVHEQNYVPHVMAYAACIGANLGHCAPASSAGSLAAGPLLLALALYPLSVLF
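system = human TNAP | amount = enzyme diluted 1/800 final | reagent = 100 µM CDP-star substrate | signal = luminescent substrate turnover signal | dosing = one dose, 20 µM | benchmarks = EDTA negative control, DMSO positive control | measure = activation factor | timing = 30 min reaction, room temperature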
TNAP inh no acc = TNAP (human) inhibition, acceptor-free conditions | purified TNAP, CDP-star luminescence, 30 min | P05186 | inhibition, % at 20 µM | AID 1012 | 200,000 compounds, 0.26% hits;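 active means tissue-nonspecific alkaline phosphatase inhibition above about 50% at 20 µM in the single-dose screen, limit read from the data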;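 further: 0% = DMSO negative control and 100% = EDTA positive control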
G6PDH CS = inhibits Leuconostoc G6PDH, flagging false hits in G6PDH-based assays. 200,000 compounds, 0.12% hits. inhibition, % at 5 µM. Purified L. mesenteroides G6PDH, diaphorase/resazurin coupled fluorescence, 45 min. AID 1020; in the data active means inhibition above about 50%
Efa HMGR inh = inhibitors of class II HMG-CoA reductase from Enterococcus faecalis; AID 1066; purified E. faecalis HMGR, NADPH absorbance 340 nm kinetic; 190,000 compounds, 0.41% hits; inhibition, % at 10 µM;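 active means inhibition above a set limit, the median over all tested compounds plus 3 SD, cut at about 9.5% in these data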;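 further: enzyme runs in reverse so mevalonate oxidation gives rising NADPH absorbance; 0% = complete reaction with DMSO and 100% = background rate lacking mevalonate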
Diaph inh CS = inhibits diaphorase or chemically oxidizes, flagging diaphorase assay artifacts; diaphorase resazurin-to-resorufin fluorescence, NADH, 16 min; bacterial (C. kluyveri) enzyme, not human; inhibition, % at 20 µM; 190,000 compounds, 0.69% hits;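 active means primary screen inhibition at 20 µM above a set limit, cut at about 50% in these data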;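 further: plate controls were DMSO with full reaction for no effect and wells lacking NADH for full effect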
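Assay system: diaphorase enzyme from Clostridium kluyveri; Input: enzyme working solution with 0.14 U/mL diaphorase; Timing: 16 min at room temperature; Technique: resorufin fluorescence, excitation 544 nm, emission 590 nm; Benchmarks: positive control minus NADH, DMSO neutral control.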
TNAP inh hi DEA = inhibitors of human TNAP at high phosphate acceptor concentration; P05186; purified TNAP, CDP-star luminescence, 1 M DEA; inhibition, % at 20 µM; 200,000 compounds, 0.03% hits; AID 1135;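 active means over 50% inhibition of tissue-nonspecific alkaline phosphatase at 20 µM in the single-dose screen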;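 further: plate controls were DMSO wells for no effect and EDTA-quenched wells as full inhibition for full effect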
* marks the source's active call; other numbers are inactive results. This is a subset, so the mix of outcomes need not match the whole.

Abbreviations – A = TNAP act hiacc; B = TNAP inh no acc; C = G6PDH CS; D = Efa HMGR inh; E = Diaph inh CS; F = TNAP inh hi DEA
1: Cc1oc(C(=O)Nc2ccc(O)cc2)cc1COc1ccccc1
  A = 1	B = 0	C = 3	D = 4	E = 24	F = 0

2: CCOC(=O)c1c(NC(=O)c2c(N)n(CCCOC)c3nc4ccccc4nc23)sc2c1CCCC2
  A = 0.9	B = -1	C = -4	D = -7	E = 26	F = 6

3: CC(NCc1ccc(Cl)cc1)C(O)c1ccccc1 (configuration not stated)
  A = 1	B = -8	C = 4	D = -6	E = 4	F = -2

4: S=C1NCCN1
  A = 1	B = -3	C = 14	D = 0	E = 12	F = 2

5: O=[N+]([O-])c1ccc(C2[C@H]3C(c4ccccc4)=NC4(CCCCC4)N23)cc1 (some centres not stated)
  A = 1	B = -12	C = -11	D = -10	E = 13	F = 2

6: O=C(Nc1ccc(Cl)cc1C(=O)c1ccccc1Cl)c1ccco1
  A = 1.1	B = -10	C = 3	D = 2	E = 7	F = -5

7: C(=NC12CN3CN(CN(C3)C1)C2)c1cccnc1
  A = 1	B = -9	C = -1	D = -5	E = -4	F = 0

8: CCOC(C(=O)OCCCN(CC)CC)(c1ccccc1)c1ccccc1
  A = 1	B = -9	C = 7	D = -5	E = 12	F = -3

9: CC(C)(C)c1ccc(S(=O)(=O)N2CC3CC(C2)c2cccc(=O)n2C3)cc1 (configuration not stated)
  A = 1	B = -8	C = 3	D = -5	E = 1	F = -2

10: CS(=O)(=O)N1CCCC(C(=O)N2CCC3(CC2)OCCO3)C1 (configuration not stated)
  A = 1.1	B = -10	C = 0	D = -1	E = 5	F = -5

Whole records, quoted from the list.
`CCOC(=O)c1c(NC(=O)c2c(N)n(CCCOC)c3nc4ccccc4nc23)sc2c1CCCC2` is listed with TNAP act hiacc = 0.9; TNAP inh no acc = -1; G6PDH CS = -4; Efa HMGR inh = -7; Diaph inh CS = 26; TNAP inh hi DEA = 6
`CCOC(C(=O)OCCCN(CC)CC)(c1ccccc1)c1ccccc1` is listed with TNAP act hiacc = 1; TNAP inh no acc = -9; G6PDH CS = 7; Efa HMGR inh = -5; Diaph inh CS = 12; TNAP inh hi DEA = -3
`CC(NCc1ccc(Cl)cc1)C(O)c1ccccc1` (configuration not stated) is listed with TNAP act hiacc = 1; TNAP inh no acc = -8; G6PDH CS = 4; Efa HMGR inh = -6; Diaph inh CS = 4; TNAP inh hi DEA = -2

Random excerpt: two compounds from above
Abbreviations – A = TNAP act hiacc; B = TNAP inh no acc; C = G6PDH CS; D = Efa HMGR inh; E = Diaph inh CS; F = TNAP inh hi DEA
8: CCOC(C(=O)OCCCN(CC)CC)(c1ccccc1)c1ccccc1
  A = 1	B = -9	C = 7	D = -5	E = 12	F = -3

3: CC(NCc1ccc(Cl)cc1)C(O)c1ccccc1 (configuration not stated)
  A = 1	B = -8	C = 4	D = -6	E = 4	F = -2
